ugtP null kill – compounds lethal to S. aureus RN4220 ugtP deletion mutant | OD600 growth, 16 h; some inactives read as strong as hits | growth inhibition, % (concentration not given with the values) | 0.54% of 330,000 active | AID 1259309;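 active = z-score under -3 and OD600 up to 0.15 on both plates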;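 also: plate controls were untreated wells for no effect and antibiotic for full effect; wells of about 80 µL received 100 nL stock; the first replicate is given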
Bead autofluor – compound fluorescence in toxin protease inhibitor counterscreen | fluorescence intensity (no concentration beside the values) | compound autofluorescence counterscreen, microsphere flow cytometry; stronger effect = higher value | 3.1% of 360,000 active;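 active = at least 3 SD above the mean of all compounds, about 16000 in these data; inconclusive = too few beads counted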;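 also: 100 nL of 1 mM stock went into each well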
PrP UTR inh – suppresses PrP 5' UTR mRNA reporter expression; cell-based PrP 5' UTR mRNA reporter, plate reader; inhibition, % (no concentration beside the values); 0.35% of 340,000 active; AID 488862;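 active = every replicate at 50% or more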;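 also: 0 = median of the neutral control wells; tested in H4 reporter cells; numbers are from one replicate; inactives centre near -14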
BJeLR lethal – kills HRASV12-expressing BJeLR cells. BJeLR (HRASV12) viability, CellTiter-Glo ATP luminescence, 48 h; reference of the scale not given here. inhibition, % (concentration not given with the values). 0.17% of 300,000 active;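 active = replicate mean above 50%; inconclusive = above 50% but judged a plate artefact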;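 also: 50 nL library stock added to about 25 µL; numbers are from one replicate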
Mtb hypoxia rep – reduces hypoxia-regulated biosensor signal in M. tuberculosis | M. tuberculosis hypoxia-regulated fluorescent reporter, fluorescence | fluorescence inhibition, % (test concentration not listed) | 0.1% of 300,000 active | AID 1159583;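 active = 35 to 45% if threefold the growth effect, above 45% if 1.5-fold the growth effect; inactive = the rest, general growth blockers included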;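 also: wells of about 50 µL received 100 nL stock; 0% = vehicle wells and 100% = reference inhibitor wells; whole bacteria with a GFP reporter of the hypoxia response; strong numbers were not always called active; many hits fall short of the cut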
RN4220 kill – kills Staphylococcus aureus RN4220; 0.33% of 330,000 active; S. aureus RN4220 growth, OD600, 16 h; AID 1259311; inhibition, % (concentration not given with the values);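 active = z-score of -3 or lower and OD600 up to 0.18 on both plates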;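 also: plate controls were untreated cells for no effect and reference antibiotic for full effect; stock transfer was 100 nL into about 80 µL; one replicate is shown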
Mtb hypoxia rep growth – further read-out of Mtb hypoxia rep, marked with its call; growth inhibition, %; measured here: M. tuberculosis growth (absorbance);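 0% = vehicle and 100% = reference antibiotic; read after six days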
Active calls of the source: *; u = inconclusive; x = not tested or not shown.

Value order – ugtP null kill	Bead autofluor	PrP UTR inh	BJeLR lethal	Mtb hypoxia rep	Mtb hypoxia rep growth	RN4220 kill
- C=CCNC(=S)NN=Cc1ccc(C)s1
 : -3	x	x	x	14	15	3.3
- Cc1ccc(CNC(=O)c2cc3c(=O)n4ccccc4nc3n(CC3CCCO3)c2=N)cc1 (configuration not stated)
 : 4	4200	-13	-4	9	10	0.9
- O=[N+]([O-])c1ccc(/C=N/Nc2ncc(-c3ccccc3)cn2)cc1
 : x	4542	-6	7	x	x	x
- C/C=C/c1ccc(OCC(=O)Nc2cc(S(=O)(=O)N3CCOCC3)ccc2N2CCCC2)c(OC)c1
 : 2	4422	18	2	6	8	10
- O=C(N/N=C/c1cc(Br)cs1)C(O)c1ccccc1 (configuration not stated)
 : x	3792	-9	-8	x	x	x
- CCCOc1ccc(Cc2c(O)nc(SC)[nH]c2=O)cc1
 : 7	3034	-7	2	-2	2	2.8
- COc1ccccc1NC(=O)C1=C(C)Nc2nnnn2C1c1ccncc1 (configuration not stated)
 : -4	5253	-12	-3	4	8	7.0
- Cc1ccccc1NC(=O)Cc1nc(COC(=O)c2ccccn2)cs1
 : -1	5983	-13	2	1	9	-2.6
- Cc1cccc(N2CCN(C(=O)c3cccc(NC4=NC5CS(=O)(=O)CC5S4)c3)CC2)c1C (configuration not stated)
 : -4	5216	-41	-2	12	10	-17
- Cc1cc(C)nc(N=C(N)Nc2ccc([N+](=O)[O-])cc2)n1
 : 3	x	x	x	7	3	1.6
- C=CCn1c(COc2ccccc2F)nnc1SCC(=O)Nc1cc(C)on1
 : -2	2035	-7	5	2	1	2.6
- CN(C(=O)CSc1nncc2ccccc12)c1ccccc1
 : -1	2963	x	x	3	17	3.0
- CCN1C(=O)C2C(C1=O)C(c1ccc(OC)cc1)N1C(=O)c3ccccc3NC(=O)C21 (configuration not stated)
 : 0	x	x	x	19	8	4.6
- COc1ccc(SCCN2CCN(C)CCC2=O)cc1
 : -3	3488	-6	-11	-2	0	5.1
- O=C1NC(=O)N(Cc2ccco2)C(=O)/C1=C\c1cccn1CCOc1ccc(Cl)cc1
 : -1	2645	-14	-10	6	7	2.1
- O=C(O)COc1ccc(-c2nnn(CC(=O)O)n2)cc1
 : 7	10769	-19	4	2	2	5.9
- O=S(=O)(Nc1cccc(S(=O)(=O)N2CCOCC2)c1)c1cccs1
 : 7	4650	-20	-18	9	-27	2.2
- COc1ccccc1NCCC(=O)OCC(=O)NC1CCCCC1
 : 11	3163	-15	2	13	4	7.1
- O=C(/C=C/c1ccc(F)cc1)Nc1ccc(S(=O)(=O)Nc2ncccn2)cc1
 : 11	4772	-15	-2	7	4	2.4
- Cc1c(NC(=O)C2CC(c3c(F)cccc3Cl)=NO2)c(=O)n(-c2ccccc2)n1C (configuration not stated)
 : 5	10089	-35	-5	6	7	2.0
- Cc1c(Cl)cccc1NC(=O)CSc1nc2ncc(Cl)cc2[nH]1
 : -7	3885	-31	-4	-7	-2	2.1
- CC(C)CN(C(=O)COC(=O)c1cnccn1)c1c(N)n(Cc2ccccc2)c(=O)[nH]c1=O
 : 0	x	-4	-16	11	9	2.2
- CN(CCOc1ccc(Br)cc1)CC(O)c1ccccc1 (configuration not stated)
 : 2	3933	-5	-2	5	9	0.1
- Cc1cc(NC(=O)c2ccc(NC(=O)C(C)C)cc2)no1
 : 5	x	-30	-1	x	x	-0.3
- CC(C)CN(C(=O)CSc1nnnn1C)C1CCS(=O)(=O)C1 (configuration not stated)
 : -10	3267	-10	2	-3	3	2.3
- Cc1nn(Cc2ccc(C(=O)N3N=C(C(F)F)CC3(O)C(F)F)cc2)c(C)c1[N+](=O)[O-] (configuration not stated)
 : -5	20622*	-39	0	0	1	2.1
- COc1ccc(C(=O)NNC(=O)C2CCCN(C3CC(=O)N(c4ccccc4)C3=O)C2)cc1 (configuration not stated)
 : 10	6066	-15	-5	1	-7	5.2
- CCOc1ccccc1NC(=O)Cn1c(C)cc(COC)c(C#N)c1=O
 : -6	3947	-12	-12	-4	4	-1.0
- Cc1cc(NC(=O)COc2ccccc2C(N)=O)no1
 : 4	3469	-42	x	16	9	3.6
- Cc1ccc(Cl)cc1N1CCN(C(=O)c2ccc(NC3=NC4CS(=O)(=O)CC4S3)cc2)CC1 (configuration not stated)
 : 3	4140	-15	-12	-2	9	0.2
- Cc1ccc(-n2c(C)c(C)c3c(NCCN(C)C)ncnc32)cc1
 : 5	3905	-11	4	8	4	2.0
- O=C(CCNS(=O)(=O)c1ccccc1)OCC(=O)c1ccc[nH]1
 : 5	u	-7	6	5	4	1.7
- O=C1CCCc2c1nc(-c1ccccc1F)n2O
 : -3	5758	-15	-3	-4	11	-4.2
- CCN1CCN(C(C)C(=O)Nc2c(C)n(C)n(-c3ccccc3)c2=O)CC1 (configuration not stated)
 : 3	4090	-14	-1	x	x	-0.7
- O=C(NN=Cc1cccs1)c1cc(-c2cccc3ccccc23)n[nH]1
 : -11	x	x	x	10	5	13
- O=C1C2C(C(=O)N1/N=C/c1ccc([N+](=O)[O-])o1)C1C=CC2C12CC2 (configuration not stated)
 : x	2384	-18	-16	x	x	x
- O=C(Cn1cnc2ccccc2c1=O)NCCC(=O)Nc1ccc2c(c1)OCCO2
 : -3	2695	-29	-2	x	x	0.8
- CCCn1c(N)c(C(=O)CSc2ncc(C(F)(F)F)cc2Cl)c(=O)[nH]c1=O
 : 10	3139	-26	5	6	3	3.1
- C/C(=N/NS(=O)(=O)c1ccc(F)cc1)c1ccc(NC(=O)c2ccc(C)o2)cc1
 : x	2475	-21	9	x	x	x
- NNC(=O)c1ccc(COc2ccc3c(c2)CCC3)o1
 : -1	2128	-17	-8	6	8	13
- CC(C)(C)c1ccc(C2(C)NC(=O)N(CC(=O)NCc3cccs3)C2=O)cc1 (configuration not stated)
 : 1	2431	-25	-10	12	3	17
- Cc1nnc(NC(=O)CCSCCC(=O)Nc2nnc(C)s2)s1
 : -2	2540	-6	-2	3	-2	4.0
- CCOC(=O)CN=C/C(C(C)=O)=C(/C)O
 : 14	3258	-26	2	9	9	2.5
- Cc1cccc(C)c1OCC(=O)NC(Cc1c[nH]c2ccccc12)C(=O)O (configuration not stated)
 : 2	2210	-2	5	12	9	4.6
- COc1ccc(C(=O)c2ccccc2)cc1Br
 : -8	8538	-15	1	10	3	13
- CCN(CC)c1ccc(/C=N/NC(=O)c2ccco2)cc1
 : x	2504	-51	1	x	x	x
- Cc1ccc(NC(=O)c2noc3c2CCCCC3)cc1C
 : -1	16801*	-63	-3	2	7	-3.2
- CC(C)C(=O)N1CCN(c2ccc(NC(=O)c3ccco3)cc2Cl)CC1
 : 5	5419	-16	-4	-2	0	3.5
- Cc1nn(C(=O)c2nn(C)cc2[N+](=O)[O-])c(C)c1Cl
 : -2	4803	-32	-7	-4	3	9.2
- COc1ccc(OCCNc2cc(N3CCOCC3)ccc2[N+](=O)[O-])cc1
 : -3	3095	-8	0	x	x	0.7
- CN(CCCNC(=O)c1ccccc1F)CCCNC(=O)c1ccccc1F
 : 7	3013	-23	-4	7	-9	0.3
- O=[N+]([O-])c1ccc(COP(=O)(O)OCc2ccc([N+](=O)[O-])cc2)cc1
 : 7	6112	x	7	5	7	2.6
- C=CCNC(=O)NC(=O)COC(=O)/C(C#N)=C/c1cc(C)n(CCC(C)C)c1C
 : -5	11004	-6	15	6	5	2.9
- Cc1ccccc1-n1nc2c(c1NC(=O)c1cccc(F)c1)CS(=O)C2 (configuration not stated)
 : 4	5823	-14	2	2	5	-0.2
- O=C(Nc1ccc(C(=O)O)cc1)/C(=C\c1ccccc1)NC(=O)c1ccccc1
 : -7	5739	-17	-2	-2	14	1.1
- O=C(CN1CCCCC1)c1ccc(OC(F)F)cc1
 : -2	6336	5	0	-3	-6	2.7
- Cc1sc(NC(=O)c2ccco2)c(C(c2cccnc2)N2CCC(C)CC2)c1C (configuration not stated)
 : 35	5012	-20	9	-11	4	-6.9
- COc1ccc(C(CC(=O)N2CCCC2)C(C)C)cc1 (configuration not stated)
 : 4	3066	-12	-4	-4	3	4.3
- COc1ccccc1Nc1nc(C)nc2c1oc1ccccc12
 : x	4091	-13	-5	x	x	x
- CCOCCn1c(SCc2c(F)cccc2Cl)nc2c1c(=O)[nH]c(=O)n2C
 : -2	5698	1	-14	3	7	2.2

(cont.)
Value order – ugtP null kill	Bead autofluor	PrP UTR inh	BJeLR lethal	Mtb hypoxia rep	Mtb hypoxia rep growth	RN4220 kill
- O=C1Nc2ccc([N+](=O)[O-])cc2C1(O)N1CCCCCC1 (configuration not stated)
 : 2	8184	-16	-12	5	-7	3.4
- COCCCNC(=O)CN(CCc1ccccc1)S(=O)(=O)c1ccccc1
 : -4	4481	-46	-6	-3	-1	-0.4
- COc1ccccc1-n1c([S-])c(C(=O)Nc2ccccc2C(F)(F)F)[n+]2ccc(C(=O)NCCO)cc12
 : 8	4782	-18	-4	6	9	4.7
- CCn1cc(/C=C(\NC(=O)c2ccccc2)C(=O)NCCCN2CCOCC2)c2ccccc21
 : 5	5111	-22	-3	5	6	-1.1
- CCOC(=O)C1=C(C)Nc2nc(C)nn2C1c1ccc(OC)c(OC)c1 (configuration not stated)
 : 2	6235	-38	-6	x	x	0.3
- Cc1ccc(-c2cc(C(F)F)n3ncc(C(=O)N4CCN5CCCC5C4)c3n2)cc1 (configuration not stated)
 : -5	2841	-6	-8	-3	2	-10
- CCC(C(=O)OC)n1cnc2c(nnn2-c2cccc(OC)c2)c1=O (configuration not stated)
 : -1	2940	-10	-9	16	7	2.6
- C=CCn1cc(/C=C/c2cc[n+](C)cc2)c2ccccc21
 : 12	5216	13	7	14	1	4.4
- Cc1ccc(NC(=O)c2ccc(CN3CCc4ccccc4C3)cc2)cc1
 : -3	3295	-67	8	6	8	-0.4
- O=C(Nc1ccc(S(=O)(=O)Nc2ncccn2)cc1)C1=COCCO1
 : x	4998	-18	14	x	x	x
- O=C(N/N=C/c1ccco1)C1CC1c1ccccc1 (configuration not stated)
 : x	2071	0	-20	x	x	x
- CCC(C)(C)NS(=O)(=O)c1cc(CN2C(=O)c3cccnc3C2=O)ccc1OC
 : -5	3033	11	0	-9	-5	0.8
- Cc1cc(C)n(CCC(=O)N2CCc3ccccc32)n1
 : 5	5139	-10	8	4	-2	-0.2
- Cc1ccc(NC(=O)NCc2ccc3[nH]c(C)cc3c2)cc1
 : 11	2383	-49	13	1	8	-1.8
- CC(=O)NC(Cc1cccc(F)c1)C(=O)NC1CCN(C(=O)c2ccc(C)cc2)CC1 (configuration not stated)
 : 4	3276	-17	5	6	0	2.1

Complete entries, looked up by structure. Order of values: ugtP null kill, Bead autofluor, PrP UTR inh, BJeLR lethal, Mtb hypoxia rep, Mtb hypoxia rep growth, RN4220 kill
Cc1ccc(-c2cc(C(F)F)n3ncc(C(=O)N4CCN5CCCC5C4)c3n2)cc1 (configuration not stated) reads -5, 2841, -6, -8, -3, 2, -10
CCC(C)(C)NS(=O)(=O)c1cc(CN2C(=O)c3cccnc3C2=O)ccc1OC reads -5, 3033, 11, 0, -9, -5, 0.8
CCOC(=O)C1=C(C)Nc2nc(C)nn2C1c1ccc(OC)c(OC)c1 (configuration not stated) reads 2, 6235, -38, -6, x, x, 0.3
Cc1ccc(NC(=O)NCc2ccc3[nH]c(C)cc3c2)cc1 reads 11, 2383, -49, 13, 1, 8, -1.8
COc1ccccc1-n1c([S-])c(C(=O)Nc2ccccc2C(F)(F)F)[n+]2ccc(C(=O)NCCO)cc12 reads 8, 4782, -18, -4, 6, 9, 4.7

Other records:
Value order – ugtP null kill	Bead autofluor	PrP UTR inh	BJeLR lethal	Mtb hypoxia rep	Mtb hypoxia rep growth	RN4220 kill
- O=C(NCCO)c1ccc2[nH]c3c(c2c1)CCCC3
 : -4	6004	-40	0	15	8	6.6
- COc1cccc(C2CC(c3ccccc3Cl)Nc3ncnn32)c1 (configuration not stated)
 : -10	18432*	-25	x	-8	3	-4.6
- O=C1Nc2cc(C(=O)N3CCc4ccccc4C3)ccc2S/C1=C\c1ccccc1
 : -12	2308	-16	-1	4	7	5.4
- CCOCCn1c(N(C)Cc2ccccc2)nc2c1c(=O)[nH]c(=O)n2C
 : 4	3399	-11	-7	2	-1	1.2
- O=C(CSCc1ccccc1)NC1CCSC1=O (configuration not stated)
 : 1	23850*	-21	0	11	15	3.7
- CC(=O)OCC1=C(C(=O)O)N2C(=O)C(NC(=O)C(C)Cn3nc(C)c(Cl)c3C)C2SC1 (configuration not stated)
 : 101*	4292	-25	-11	-2	-4	100*
- COc1ccc(NC(=O)N2CCCc3ccccc32)cc1OC
 : 4	6294	-9	-2	-3	-7	3.9

Assay outcomes: PubChem BioAssay, several laboratories
